High-throughput results from PubChem.
HPGD block: HPGD (human) dehydrogenase inhibition. purified HPGD, NADH fluorescence kinetic, PGE2 substrate. AID 894. Potency, µM, for inactives: at the highest dose activity change, negative = inhibition, usual class: inhibitors. 150,000 compounds, 4.3% hits. P15428; active = well fitted inhibition curve with a large enough effect (not every such curve was filed as active); inconclusive = small, poorly fitted or top-dose-only effect, or another doubt; inactive = no such curve, though single readings can be large or run the other way;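 note: top concentration of the series not given in the record; plate controls included wells without enzyme; inactives centre near -10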
Target sequence (P15428 whole entry, looked up): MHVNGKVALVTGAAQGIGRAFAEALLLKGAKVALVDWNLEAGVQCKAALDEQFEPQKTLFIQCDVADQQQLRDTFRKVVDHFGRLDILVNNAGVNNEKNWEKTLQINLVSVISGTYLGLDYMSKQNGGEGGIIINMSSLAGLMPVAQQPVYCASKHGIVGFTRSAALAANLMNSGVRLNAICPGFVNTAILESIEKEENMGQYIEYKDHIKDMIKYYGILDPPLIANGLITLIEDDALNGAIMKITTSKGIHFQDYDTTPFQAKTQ
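NADH formation kinetics: reaction with 30 uM PGE2 and 1 mM NAD+ (final), 20 nM enzyme, Tris-HCl pH 8 with Tween 20, after 15 min compound preincubation at room temperature. Fluorescence change, last versus first of five reads.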
* hit, by the source's call. % is set by controls: 0 for no effect and ±100 for the full control effect; potency is the fitted concentration of half-maximal effect.

For CCOC(=O)C1CCCN(C(=O)CCCn2nc(C)n3c(cc4sccc43)c2=O)C1 (stereo unspecified) the results were HPGD block -9%.
`CCC(=O)Nc1ccc2c(c1)nc(CN1CCN(C(C)=O)CC1)n2C` gave HPGD block -19%.
Screening COc1cc(NC(=O)c2cc3nc(C4CC4)cc(C(F)(F)F)n3n2)c(OC)cc1Cl returned HPGD block -14%.
Screening CCOC(=O)CSc1nnc(Cn2c(=O)sc3ccccc32)n1-c1ccccc1C returned HPGD block -12%.
Screening CC(NC(=O)CCC(=O)NC(C)C1COc2ccccc2O1)C1COc2ccccc2O1 (stereo unspecified) returned HPGD block -3%.
O=c1[nH]c(/C(Cl)=C/c2cccc(C(F)(F)F)c2)nc2cc(Cl)ccc12 was read as HPGD block -19%.
For O=[N+]([O-])c1ccccc1S(=O)(=O)Oc1ccc(/C=N/n2cnnc2)cc1 the results were HPGD block -22%.
Screening CCCCC[C@H](O)C=C[C@H]1[C@H](O)CC(=O)[C@H]1CCCCCCC(=O)O returned HPGD block inconclusive.
For NC(=O)COc1c(-c2ccccc2)oc2ccccc2c1=O the results were HPGD block -10%.
`Cc1cc(NC(=O)CCC(=O)N(c2ccc(F)cc2)C2(C(=O)NC3CCCCC3)CCCC2)no1` gave HPGD block -13%.
C/C(=N/N=C1/NC(=O)CC(C(=O)O)S1)c1ccccc1 (stereo unspecified) was read as HPGD block -2%.
CC(C)OC(=O)c1c2nc3ccccc3nc2n2c1[nH]c(=O)c1ccccc12 was read as HPGD block inconclusive.
Screening COc1ccccc1NC(=O)c1cnc(Nc2ccccc2OC)c2ccccc12 returned HPGD block inconclusive.
O=C(O)CCC(=O)NNC(=O)CCC1CCCCC1 was read as HPGD block -2%.
`CC1CCCN(S(=O)(=O)c2ccc(C(=O)Nc3nnc(-c4ccccc4Cl)o3)cc2)C1` (stereo unspecified) gave HPGD block -9%.
`COc1ccc(NC(=O)C(C)N2c3cccc4cccc(c34)S2(=O)=O)cc1OC` (stereo unspecified) gave HPGD block -29%.
Screening COC(=O)C1=C(N)Oc2cc(C)n(CCN3CCOCC3)c(=O)c2C1c1cccnc1 (stereo unspecified) returned HPGD block -8%.
For Cc1cccc(NC(=O)CCSc2nncn2C)c1 the results were HPGD block -1%.
`CC1(C)CC(NCc2ccc3c(c2)OCO3)CCO1` (stereo unspecified) gave HPGD block -2%.
For C=CCn1c(C)c(C(C)=O)c(SC)nc1=S the results were HPGD block -11%.
Screening COc1ccc(OCC(=O)O/N=C(\N)c2ccc(OC)c(OC)c2)cc1 returned HPGD block -28%.
`COc1cc2nc(COc3ccc(C#N)cc3)n(CC#N)c(=O)c2cc1OC` gave HPGD block -5%.
CN(C)c1cccc(C(=O)NC2CCCCCC2)c1 was read as HPGD block -22%.
Screening COC(=O)c1cc(/C=C/c2ccccc2)on1 returned HPGD block -8%.
O=C(NCC(c1cccnc1)N1CCN(c2ccccc2)CC1)C1CCCCC1 (stereo unspecified) was read as HPGD block -8%.
For C=CCOc1ccc(C=Nc2ccc(C)c(Cl)c2)c(O)c1 the results were HPGD block -13%.
For CC(=O)C(C)Oc1ccc2c3c(c(=O)oc2c1)CCCCC3 (stereo unspecified) the results were HPGD block inconclusive.
Screening Cc1ccccc1OCCCC(=O)Nc1ccc(Br)cc1 returned HPGD block -3%.
Screening COC(=O)C(CC(C(=O)OC)C(=O)OC)C(=O)OC returned HPGD block -1%.
`CN(c1ccccc1C(=O)Nc1ccc(S(=O)(=O)N2CCCCC2)cc1)S(C)(=O)=O` gave HPGD block 4%.
For N=c1n(CCO)c2ccccc2n1CCOc1ccc(Cl)cc1Cl the results were HPGD block -4%.
COC(=O)[C@@H]1C[C@@H]2CC[C@@H](O)C[C@@H]2N1Cc1ccc(C(F)(F)F)cc1 was read as HPGD block -5%.
CCc1cccc(N=c2c([N+](=O)[O-])nn(-c3ccc(Cl)cc3)n2O)c1 was read as HPGD block -14%.
For O=C(CCN1C(=O)c2ccccc2C1=O)N(CCO)Cc1ccccc1 the results were HPGD block -10%.
For CC(/C=C/c1cccc([N+](=O)[O-])c1)=N\NC(=O)c1ccncc1 the results were HPGD block -7%.
Screening O=C(CCN1C(=O)COc2ccccc21)NCCCN1CCN(c2ccc(F)cc2)CC1 returned HPGD block -1%.
For COc1ccc(C(=O)Nc2ccc(OCc3ccccc3)cc2)cc1[N+](=O)[O-] the results were HPGD block -13%.
`COc1ccc(N2C(=O)S[C@@H]3CS(=O)(=O)C[C@@H]32)cc1` gave HPGD block -13%.
O=C(O)CC(c1ccc(Cl)cc1)n1cccc1 (stereo unspecified) was read as HPGD block -11%.
CC12CC3CC(C)(C1)CC(CN)(C3)C2 was read as HPGD block -2%.
`O=C(NCc1ccccc1)C(=O)NCC1OCCN1C(=O)c1cccs1` (stereo unspecified) gave HPGD block -7%.
For O=C(COC(=O)C1CC(=O)N(Cc2ccco2)C1)c1ccc(OC(=O)c2ccccc2)cc1 (stereo unspecified) the results were HPGD block 28µM*.
Screening CCOc1ccc(-c2cc(C(=O)NN3CCN(C)CC3)c3cc(Cl)ccc3n2)cc1 returned HPGD block inconclusive.
For O=c1n(-c2ccccc2)c(=O)n2n1CCC2 the results were HPGD block 1%.
Screening CCn1c(SCC(=O)Nc2oc(-c3ccccc3)c(-c3ccccc3)c2C#N)nnc1-c1cc(OC)cc(OC)c1 returned HPGD block -18%.
Screening Cn1nnc2cc(NC(=O)N3CCN(c4ccccn4)CC3)ccc21 returned HPGD block -8%.
Screening COCCCNC(=O)c1ccc(N2CCCC2)c(NS(=O)(=O)c2ccc(C)cc2)c1 returned HPGD block -25%.
O=C(O)CCC(=O)c1ccc2c(c1)OCCO2 was read as HPGD block -15%.
`CC(=O)Nc1sc2c(c1C(=O)N1CCOCC1)CCCCC2` gave HPGD block -2%.
Screening COc1cccc(-n2c(Cc3cc(=O)[nH]c(=O)[nH]3)nnc2SCC(=O)N2CCCC2)c1 returned HPGD block -11%.
`COCCNC(=O)CN(CCc1ccccc1)S(=O)(=O)c1ccc(OC)cc1` gave HPGD block -4%.
`COCCn1c(=N)c(C(=O)NCc2ccco2)cc2c(=O)n3ccccc3nc21` gave HPGD block inconclusive.
For COC(=O)Nc1nnc(-c2ccccc2Cl)s1 the results were HPGD block inconclusive.
COC(=O)C1=C(C)N(CC2CCCO2)C(=O)C1 (stereo unspecified) was read as HPGD block -5%.
CN(C)c1nc2c(c(=O)[nH]c(=O)n2C)n1Cc1ccccc1Br was read as HPGD block 18µM*.
For CN(C1CCCCC1)S(=O)(=O)c1ccc(NC(=S)NC(=O)c2cccs2)cc1 the results were HPGD block -13%.
CCN(CC)S(=O)(=O)c1cccc(NC(=O)COc2ccc(C#N)cc2OC)c1 was read as HPGD block 1%.
`CCCC(c1nnnn1CC(=O)OCC)N(Cc1cc2ccc(C)cc2[nH]c1=O)C1CCCC1` (stereo unspecified) gave HPGD block -17%.
CCC(=O)NS(=O)(=O)c1ccc(N=NN2CCCCC2)cc1 was read as HPGD block -14%.
C[N+](C)(C)CCN(Cc1cccs1)c1ccccn1 was read as HPGD block -14%.

3 structures out of the list, arranged by number of heavy atoms, smallest number first:
O=C(O)CC(c1ccc(Cl)cc1)n1cccc1 (stereo unspecified) was read as HPGD block -11%.
Screening COc1ccc(OCC(=O)O/N=C(\N)c2ccc(OC)c(OC)c2)cc1 returned HPGD block -28%.
For O=C(COC(=O)C1CC(=O)N(Cc2ccco2)C1)c1ccc(OC(=O)c2ccccc2)cc1 (stereo unspecified) the results were HPGD block 28µM*.

The listing continues:
Screening CCCCCCCCCCSc1n[nH]c(NC(C)=O)n1 returned HPGD block -2%.
`Cc1ccc(CC(NC(=O)c2ccccc2)C(=O)NCC(=O)O)cc1` (stereo unspecified) gave HPGD block -9%.
Screening CCOc1cccc2cc(C(=O)Nc3ccccc3-c3ccccc3)c(=O)oc12 returned HPGD block -15%.
`Cc1ccc(N=Cc2c(O)n(-c3ccc4c(c3)OCO4)c(=O)c3ccccc23)cc1` gave HPGD block -11%.
For CCOC(=O)C(C)C1(O)c2ccccc2-c2ncccc21 (stereo unspecified) the results were HPGD block -12%.
CC(NC(=O)Cc1ccsc1)c1ccc(S(N)(=O)=O)cc1 (stereo unspecified) was read as HPGD block -16%.
For CCOC(=O)N1CCN(CC(=O)c2c[nH]c3ccc(F)cc23)CC1 the results were HPGD block -3%.
Screening Cc1c(Cl)cccc1N(CC(=O)N1CCCCCC1)S(C)(=O)=O returned HPGD block 6%.
For C=CCC(=O)OCC(=O)Nc1ccc(Oc2ccccc2)cc1 the results were HPGD block -9%.
`CCOC(=O)C(NCCc1ccc(F)cc1)(NC(=O)CC)C(F)(F)F` (stereo unspecified) gave HPGD block -3%.
Screening O=C(CSc1ncnc2scc(-c3ccc(F)cc3)c12)c1ccc2c(c1)OCCO2 returned HPGD block -6%.
Screening CN1CCN(C(=O)CSc2nc(-c3cccs3)ccc2C#N)CC1 returned HPGD block inconclusive.

The last five records of the section before come first, to join the parts.
Screening Cc1c(Cl)cccc1N(CC(=O)N1CCCCCC1)S(C)(=O)=O returned HPGD block 6%.
For C=CCC(=O)OCC(=O)Nc1ccc(Oc2ccccc2)cc1 the results were HPGD block -9%.
`CCOC(=O)C(NCCc1ccc(F)cc1)(NC(=O)CC)C(F)(F)F` (stereo unspecified) gave HPGD block -3%.
Screening O=C(CSc1ncnc2scc(-c3ccc(F)cc3)c12)c1ccc2c(c1)OCCO2 returned HPGD block -6%.
Screening CN1CCN(C(=O)CSc2nc(-c3cccs3)ccc2C#N)CC1 returned HPGD block inconclusive.
Cc1nn(CC(=O)Nc2ccc(S(=O)(=O)N(C)C)cc2)c(C)c1[N+](=O)[O-] was read as HPGD block -5%.
CCc1ccc2c(c1)C1(NN=C(c3cccc4ccccc34)S1)C(=O)N2 (stereo unspecified) was read as HPGD block inconclusive.
`O=C(CNC(=O)c1ccc(Cl)cc1Cl)OCC(=O)c1ccc2c(c1)OCCO2` gave HPGD block -8%.
`Cc1nc(NC(=O)c2ccccc2)sc1-c1csc(Nc2ccc(Cl)cc2Cl)n1` gave HPGD block inconclusive.
`Cn1nnc2cc(C(=O)NCc3ccc4c(c3)OCO4)ccc21` gave HPGD block -6%.
`O=S(=O)(c1ccc(F)c2ccccc12)N1CCCCC1` gave HPGD block -14%.
For CCOC(=O)c1c(NC(=O)Cn2c(=O)oc3ccccc32)oc(C)c1C(C)=O the results were HPGD block -16%.
Screening COc1ccc(OCC(=O)OCCN(C)C)cc1 returned HPGD block -4%.
Screening CC(C)(CNC(=O)c1cc(=O)[nH]c2ccccc12)N1CCOCC1 returned HPGD block -10%.
`O=c1cc(CF)[nH]c(=S)[nH]1` gave HPGD block -13%.
Screening O=C(CCc1ccc(S(=O)(=O)N2CCOCC2)cc1)NN=C1CCCCCCC1 returned HPGD block -1%.
Screening CCC(CC)C1C(C#N)=C(N)SC(N)=C1C#N returned HPGD block -22%.

2 compounds drawn at random from the list so far:
`Cc1nc(NC(=O)c2ccccc2)sc1-c1csc(Nc2ccc(Cl)cc2Cl)n1` gave HPGD block inconclusive.
Screening CC(C)(CNC(=O)c1cc(=O)[nH]c2ccccc12)N1CCOCC1 returned HPGD block -10%.

The listing picks up; the 3 compounds before the break are reprinted first.
`O=c1cc(CF)[nH]c(=S)[nH]1` gave HPGD block -13%.
Screening O=C(CCc1ccc(S(=O)(=O)N2CCOCC2)cc1)NN=C1CCCCCCC1 returned HPGD block -1%.
Screening CCC(CC)C1C(C#N)=C(N)SC(N)=C1C#N returned HPGD block -22%.
C=CCOc1c(Cl)cc(CNc2ccc(C)c(Cl)c2)cc1OC was read as HPGD block -13%.
`CC(C)(C)OC(=O)NNC(=O)c1ccc(Cl)cc1` gave HPGD block -12%.
`CC(NC(=O)C1CCCC1)c1ccc2c(c1)OCCO2` (stereo unspecified) gave HPGD block -25%.
`CC(C)[C@H](NS(=O)(=O)c1ccccc1)C(=O)OCC(=O)Nc1ccccc1Sc1ccccc1` gave HPGD block -10%.
CCOC(=O)CC1=C(C(=O)OCC)C(c2ccncc2)C(C#N)=C(N)O1 (stereo unspecified) was read as HPGD block -8%.
Cc1cc(C)nc(NS(=O)(=O)c2ccc(N3C(=O)C4CC=C(Cl)CC4C3=O)cc2)n1 (stereo unspecified) was read as HPGD block -8%.
`Cc1ccc(-c2nsc3c(N4CCN(C(=O)c5ccco5)CC4)ncnc23)cc1` gave HPGD block inconclusive.
`CCOC(=O)c1cnc(-c2ccccc2)nc1N` gave HPGD block -30%.
For CN1CCc2c(sc3c2c(NCc2ccco2)nc2nnnn23)C1 the results were HPGD block inconclusive.
For COc1cccc(Cn2c(=O)c(C)nc3cnc(Oc4ccccc4)nc32)c1 the results were HPGD block -19%.
N[C@@H](Cc1ccccc1)c1nnc2sc(SCc3ccccc3)nn12 was read as HPGD block 28µM*.
O=C(CN(Cc1cccs1)S(=O)(=O)c1ccc(S(=O)(=O)N2CCCCC2)cc1)Nc1ccccc1 was read as HPGD block -6%.
COc1ccccc1C(=O)NC(CCSC)C(=O)OCC(=O)NC(=O)NCc1ccco1 (stereo unspecified) was read as HPGD block -9%.
For O=C(NN=C1CCCCCCCCCCC1)c1ccccc1F the results were HPGD block -9%.
`COCc1[nH]nc2c1C(c1ccccc1F)C(C#N)=C(N)O2` (stereo unspecified) gave HPGD block -4%.
Cc1sc2c(c1C)CN(C(C)(C)C)CN2C(=O)c1ccccc1 was read as HPGD block -16%.
`COc1ccc2c(c1)CCc1sc(NC(=O)c3ccco3)nc1-2` gave HPGD block inconclusive.
Screening O=S(=O)(NCc1cn2ccsc2n1)c1cccs1 returned HPGD block -12%.
`COc1ccc(-c2cc(C(=O)OCC(=O)Nc3cc(C)on3)c3ccccc3n2)cc1OC` gave HPGD block inconclusive.

The list is partial. The share of hits here may be higher or lower than overall.
